GLA inh pH 4.5 = qHTS Assay for Inhibitors of Human alpha-Galactosidase at pH 4.5; purified enzyme, 4-MU-alpha-Gal fluorescence, pH 4.5; AID 1467, 2008; activity change, negative = inhibition, % at 105 µM; 230,000 tested, under 10 active; inconclusive = small, poorly fitted or top-dose-only inhibition, or a rising curve; inactive = flat fitted curve, though single readings scatter; no compound was filed as active;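 further: 0% = full activity with enzyme and -100% = basal without enzyme; dose as in the result columns while the protocol names 77 µM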
Target sequence (P06280 whole entry, looked up): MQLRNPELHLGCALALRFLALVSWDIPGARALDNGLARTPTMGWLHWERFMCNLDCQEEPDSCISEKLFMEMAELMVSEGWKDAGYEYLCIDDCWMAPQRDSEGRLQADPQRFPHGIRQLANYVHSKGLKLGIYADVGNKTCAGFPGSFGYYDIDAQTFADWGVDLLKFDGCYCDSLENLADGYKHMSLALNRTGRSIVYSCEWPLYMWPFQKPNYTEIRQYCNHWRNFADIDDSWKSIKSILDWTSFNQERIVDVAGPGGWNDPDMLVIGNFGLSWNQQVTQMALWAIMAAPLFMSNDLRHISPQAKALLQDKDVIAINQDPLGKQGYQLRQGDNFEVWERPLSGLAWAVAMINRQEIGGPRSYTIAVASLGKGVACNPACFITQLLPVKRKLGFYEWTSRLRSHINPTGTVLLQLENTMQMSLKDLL
Rango complex inh = qHTS Assay for Inhibitors of Rango (Ran-regulated importin-beta cargo) - Importin beta complex formation; Importin subunit beta-1 (Homo sapiens), Q14974; Potency, µM (series often up to 92.2 µM), inactives show at the highest dose inhibition of complex formation; Rango CFP/YFP FRET sensor + importin beta, 45 min; 0.031% of 340,000 active; active = rising FRET ratio curve, often small or poorly fitted; inconclusive = mostly compound fluorescence or quenching in the first reads; inactive = flat curves in all reads;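 further: potency means the concentration at half of the fitted maximal effect; 0% = DMSO wells and 100% = buffer wells lacking importin beta; nearly all actives have a fitted effect of over 15% in size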
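FRET biosensor Rango (snurportin 1 IBB between N-terminal EYFP and C-terminal Cerulean), 50 nM in PBS/1 mM DTT/0.02% Tween-20/0.1% BSA, preincubated 5 min RT with compound; 0.125 microM importin beta added, 45 min RT, CFP/YFP FRET ratio read.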
miR-21 FLuc = qHTS Assay for Modulators of miRNAs and/orActivators of miR-21 | Potency, µM (titrated, usually from 38.3 µM), for inactives: at the highest dose reporter change, positive = more light | HeLa miR-21 FLuc reporter, luciferase, 48 h | 340,000 tested, under 10 active; active = well fitted rising curve with a large enough effect; inconclusive = small, poorly fitted or top-dose-only effect; inactive = no such curve, though single readings can be large or run the other way;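 further: % of control where 0% means no effect; miR-21 action dims this reporter so a rising signal means less miR-21 action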
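Luminescence from a firefly luciferase reporter carrying a miR-21 binding site downstream, stably expressed under a CMV promoter in HeLa cells that make miR-21 endogenously, reports miRNA modulation after 48 h compound exposure up to approximately 40uM final.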
Rango release inh = qHTS Assay for Inhibitors of RanGTP induced Rango (Ran-regulated importin-beta cargo) - Importin beta complex dissociation; Snurportin-1 (Homo sapiens) + GTP-binding nuclear protein Ran (Homo sapiens) + Importin …; Biochemical FRET Rango-importin beta, RanGTP-induced dissociation; Potency, µM (doses to about 46.1 µM), without a hit: at the top dose activity change, negative = inhibition; 0.071% of 340,000 active; AID 540253, 2011; active means falling FRET ratio curve, often poorly fitted, with flat reads before Ran was added; inconclusive means other falling curves, or compound fluorescence or quenching; inactive means flat or rising ratio curve;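 further: potency means the concentration at half of the fitted maximal effect; % of control where 0% means no effect; nearly all actives have a fitted effect of over 45% in size; -100% = wells without RanGTP and RCC1; the record marks most hits as doubtful in a second field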
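Quantitative HTS using a FRET biosensor: 0.1 uM Rango, 0.25 uM importin beta, 0.6 uM Ran, 2 mM GTP, 0.2 uM RCC1 final, PBS with DTT, Tween-20 and BSA. Post-read taken 45 min after Ran addition.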
The depositor's hits bear a star; ? = inconclusive; nt = not tested or not shown; & = joins results of further samples.

molecule,GLA inh pH 4.5,Rango complex inh,miR-21 FLuc,Rango release inh
O=C(CNC(=O)c1nc[nH]c1C(=O)NCc1ccccc1)OCc1ccccc1,nt,-0.4%,10%,1%
COc1cc(C(=O)OCc2cc3ccccc3[nH]c2=O)cc(OC)c1OC,0,-2.0%,-1%,10%
O=C(Nc1ccccc1N1CCCCC1)c1ncoc1-c1cccc(F)c1,3,-0.1%,-1%,5%
CC(=O)N(Cc1ccc(F)cc1)c1cccc(C)c1C,2,-4.8%,0%,-9%
O=S(=O)(c1ccccc1)[C@@]1(c2ccc(Br)cc2)C[C@@H]2ON=C(c3ccccc3)[C@@H]2C1,nt,-3.0%,nt,-1%
C/C(=N/NS(=O)(=O)c1cccc([N+](=O)[O-])c1)c1c[nH]c2ccccc12,nt,0.4%,-11%,3%
c1ccc(Cn2ncc3ccccc32)cc1,-2,0.7%,-10%,-8%
CCc1cccc(Nc2cc(C)nc3nc(C)nn23)c1,?,0.0%,-4%,1%
CCC1(CC)C(=O)C2=C3C1[C@H](C(=O)OC)C=C(C(=O)OC)C[C@H]3n1c(=O)n(-c3ccccc3)c(=O)n1[C@H]2C (stereo not given in full),nt,6.8%,nt,-13%
COc1ccc(C2/C=C\CNCC(=O)N2Cc2ccc(F)cc2)cc1 (stereo not given),-13,-1.2%,-3%,11%
O=C(N/N=C/c1ccc(OC2CSC2)cc1)c1ccc(CN2CCOCC2)cc1,-11,-1.5%,6%,-5%
CN1C(=S)SC(/[N+]([O-])=C\c2ccco2)C1(C)C (stereo not given),-10,0.0%,-4%,2%
COc1ccccc1CCNC(=O)C1CCN(c2nnc(C)c3c(C)n(-c4ccc(C)cc4)nc23)CC1,nt,0.2%,-1%&-1%,-5%
Cc1ccc(CCNC(=O)C2CCN(S(=O)(=O)c3ccc4c(c3)CCC(=O)N4)CC2)cc1,10,-0.9%,-11%,-1%
CC(C)n1ncc2c(C(=O)Nc3ccc(S(N)(=O)=O)cc3)cc(C3CC3)nc21,nt,1.0%,nt,6%
COC(=O)c1ccc(NC(=S)N2CCN(CCO)CC2)cc1,nt,-6.1%,-11%,2%
Cc1nc(NC(=S)NC(=O)c2ccccc2)sc1C(=O)N(C)C,0,3.4%,-38%,24%
Cc1ccc(Cn2ncc3c(NCCN(C)C)ncnc32)cc1,nt,1.3%,-8%,-2%
Cc1ccc(OCC(=O)NCC2CCCO2)c(C)c1 (stereo not given),-27,-0.2%,-32%,-4%
Nc1cccc(-c2nc3ccccc3s2)c1,2,?,-35%,-11%
Clc1ccccc1Nc1c2c(nc3ncnn13)CCC2,4,5.8%,-34%,-1%
CCOC(=O)Cc1csc(NC(=O)CSc2nccn2C)n1,nt,-5.1%,1%,5%
CCOC(=O)N1CCN(c2nc(-c3cccc(OC)c3)cc(C(F)(F)F)n2)CC1,-2,-3.9%,0%,-10%
COc1ccc2nc(SC(C)C(=O)NCC(=O)Nc3ccc(F)c(F)c3F)[nH]c2c1 (stereo not given),nt,-3.5%,nt,4%
O=C(CC1C(=O)NCCN1Cc1ccc(F)cc1)NCCCn1cccn1 (stereo not given),5,1.7%,-5%,12%
Nc1ccc(C(=O)Nc2cccc(N)c2)cc1,8,1.9%,-36%,?
CCOc1ccc2[nH]c(=O)c(CN(Cc3cccs3)C(CC)c3nnnn3C(C)(C)CC)cc2c1 (stereo not given),-10,?,0%,-16%
O=C(CCc1nnc2ccc(NCc3ccco3)nn12)N1CCN(c2ccc(F)cc2)CC1,nt,-2.7%,-5%,5%
O=C1CCN(C(=O)c2ccccc2)C2CCCCC12 (stereo not given),0,-0.9%,0%,-5%
CCOc1ccccc1NS(=O)(=O)c1cn(C)nc1C,0,4.3%,1%,2%

Pulled by structure from the entries so far (six):
molecule,GLA inh pH 4.5,Rango complex inh,miR-21 FLuc,Rango release inh
C/C(=N/NS(=O)(=O)c1cccc([N+](=O)[O-])c1)c1c[nH]c2ccccc12,nt,0.4%,-11%,3%
Cc1ccc(Cn2ncc3c(NCCN(C)C)ncnc32)cc1,nt,1.3%,-8%,-2%
COc1ccc2nc(SC(C)C(=O)NCC(=O)Nc3ccc(F)c(F)c3F)[nH]c2c1 (stereo not given),nt,-3.5%,nt,4%
CN1C(=S)SC(/[N+]([O-])=C\c2ccco2)C1(C)C (stereo not given),-10,0.0%,-4%,2%
CCOC(=O)N1CCN(c2nc(-c3cccc(OC)c3)cc(C(F)(F)F)n2)CC1,-2,-3.9%,0%,-10%
CCOC(=O)Cc1csc(NC(=O)CSc2nccn2C)n1,nt,-5.1%,1%,5%

More entries follow.
molecule,GLA inh pH 4.5,Rango complex inh,miR-21 FLuc,Rango release inh
CCOC(=O)c1cnc2cc(-c3ccc(C(C)(C)C)cc3)nn2c1N,3,1.2%,-25%,8%
O=C(NCCCc1nc2ccccc2[nH]1)c1ccco1,nt,-2.8%,-9%,-18%
Cc1cc(C)c(NC(=O)CSc2nc(=O)n(CCN3CCOCC3)c3c2CCCC3)c(C)c1,nt,0.2%,nt,1%
COc1ccc(OC)c(C(=O)c2ccc(C(=O)c3cc(OC)ccc3OC)cc2)c1,-2,-1.7%,1%,-9%
COc1ccc(OC)c(C2=NS(=O)(=O)N(C)C(C(=O)NCc3cccs3)=C2)c1,nt,?,2%,?
COc1ccccc1C(C)NC(=O)C1CCN(S(=O)(=O)c2cccs2)CC1 (stereo not given),nt,-0.6%,nt,-7%
CCCOc1ccc(N2C(=O)CC(N(CCc3ccc(OC)cc3)C(=O)c3ccccc3)C2=O)cc1 (stereo not given),-8,5.0%,10%,1%
C=C(C)C(=O)NNc1ccccc1,3,-1.2%,4%,-8%
Cc1cc(C)c2cc(CN(CCO)C(=O)NC3CCCCC3)c(=O)[nH]c2c1,10,1.9%,0%,1%
COc1ccccc1N1CCN(C(=O)c2c(-c3ccccc3Cl)noc2C)CC1,-4,-0.3%,21%,5%
CCN(CC)c1ccc(S(=O)(=O)N2CCOCC2)cc1NC(=O)CN1CCc2ccccc2C1,5,-0.9%,?,-12%
CCOC(=O)C1(Cc2cccc(F)c2)CCN(CC2CC2)CC1,-1,-2.2%,0%,7%
Cc1ccc2[nH]c(=O)c(CNS(=O)(=O)c3ccccc3)c(-c3ccccc3)c2c1,-8,3.4%,2%,-7%
COc1ccccc1Nc1ccc(C(=O)O)cc1[N+](=O)[O-],-1,-2.9%,-14%,0%
CCOC(=O)c1cc(-c2nnc(-c3cc(OC)c(OC)c(OC)c3)o2)c(C)nc1C,nt,0.0%,nt,-14%
CCCN(CCC)C(=O)CSc1nc2ccccc2c(=O)n1CC1COc2ccccc2O1 (stereo not given),-2,-0.3%,-3%,28%
CCOC(=O)CN1c2ccccc2NC(=O)CC1C (stereo not given),1,-2.8%,0%,12%
CCOC(=O)c1ccc(Nc2cnc3ccccc3n2)cc1,4,-3.1%,-67%,-20%
O=C(NC1CC1)c1cc(-c2ccccn2)nc2ccccc12,-8,0.2%,-4%,-9%
O=C1c2cccc(OCC(=O)N3CCCc4ccccc43)c2CCN1Cc1ccc(Br)cc1,-3,?,29%,25%
CCCN1CCN(CCCNC(=O)C2CCCN(c3nc4ccc(OCC)cc4s3)C2)CC1 (stereo not given),0,-1.2%,-4%,3%
Cc1nn2c(C(F)(F)F)cc(-c3ccc(Cl)cc3)nc2c1C(=O)N1CCOCC1,-11,0.0%,0%,1%
CCN(CC)c1ccc(C=Nc2ccc(C#N)cc2)c(O)c1,-7,4.8%,-12%,14%
CS(=O)(=O)N(Cc1ccccc1F)c1ccccc1,-14,-0.2%,-4%,7%
Cc1ccccc1C(=O)NNC(=O)C(=O)N1CCCCC1,-3,0.7%,-4%,4%
Cc1sc2ncn(CC(=O)NC3CCCCC3)c(=O)c2c1C,nt,1.3%,nt,-4%
CCOC(=O)Cc1csc(NC(=S)NC(=O)c2ccc(C)cc2)n1,3,-3.6%,15%,17%
O=C1OCC2=C1C(c1ccc3c(c1)OCO3)Sc1ccccc1N2 (stereo not given),-6,4.3%,9%,20%
NC(=O)C1CCN(C(=O)c2cc(-c3ccc(Cl)s3)nc3ccccc23)CC1,nt,?,nt,?
COc1ccc(Cc2nnc(Nc3ccc4c(c3)OCCO4)[nH]c2=O)cc1,1,-0.3%,9%,-14%
C=CCn1c(SCc2c(F)c(F)c(F)c(F)c2F)nc(O)cc1=O,-15,-3.2%,-1%,12%
CC(C)CC(c1nnnn1Cc1cccs1)N1CCN(c2nc3ccccc3s2)CC1 (stereo not given),7,0.0%,-15%,0%
O=C(CSc1nc2ccccc2[nH]1)N/N=C/C=C/c1ccccc1[N+](=O)[O-],-8,1.4%,-15%,-3%
CCOC(=O)c1cc(NC(=O)c2ccoc2C)cc(C(=O)OCC)c1,-7,-0.1%,7%,2%
Cc1ccc(-n2ncc3c(SCC(N)=O)ncnc32)cc1C,nt,-5.4%,-48%,9%
CN(C(=O)CSc1nc2ccccc2o1)C1CCS(=O)(=O)C1 (stereo not given),nt,-0.9%,nt,0%
CC(C)c1ccc2oc(-c3ccc(N)cc3)nc2c1,5,3.9%,1%,-6%
CCOC(=O)c1cc(-c2ccccc2)sc1NC(=O)C(C)OC(=O)c1cccnc1OCC (stereo not given),2,-1.5%,-10%,-4%
Cc1cccn2c(=O)c3cc(C(=O)NCCN4CCOCC4)n(Cc4ccccc4)c3nc12,1,nt,-14%,nt
O=C(C1CCN(c2nnc(N3CCCC3=O)s2)CC1)N1CCN(Cc2ccc3c(c2)OCO3)CC1,1,1.7%,-8%,4%
CCNc1nc(SCC(=O)Nc2ccc(Cl)c(Cl)c2)nc(N(C)C)n1,2,2.7%,1%,23%
O=C(Nc1cccc(C(=O)N2CCCCC2)c1)c1ccc(Cl)cc1,nt,-4.4%,-2%,29%
Oc1ccccc1OCC(O)c1ccccc1 (stereo not given),nt,-3.3%,-16%,3%
CN1CCN(c2ccc(NC(=O)c3ccc(-c4cccc([N+](=O)[O-])c4)o3)cc2)CC1,-4,-1.9%,-39%,3%
CCOC(=O)CSc1nnc(CNC(=O)c2ccco2)n1C,5,-2.3%,-5%,-15%
Cc1ccc(-n2cccc2/C=C2/NC(=O)N(CC(=O)Nc3cccc(C)c3)C2=O)cc1,-1,0.0%,-15%,-12%
O=C1CN(S(=O)(=O)c2ccccc2)c2ccccc2N1,2,0.6%,0%,-17%
CCC(=O)N1c2ccccc2C(N(C(C)=O)c2ccccc2)CC1C (stereo not given),2,1.6%,-9%,-8%
COCCCN1C(=O)CS/C1=N\S(=O)(=O)c1ccccc1,3,4.2%,3%,11%
COc1ccc(C2CC(=O)Nc3ccccc3S2(=O)=O)cc1OC (stereo not given),11,2.0%,1%,-15%
CCOc1ccc(OCc2cccc(C(=O)N/N=C/c3cccnc3)c2)cc1,3,0.2%,-45%,0%
O=C1CC(N2CCN(S(=O)(=O)c3cccc(C(F)(F)F)c3)CC2)C(=O)N1Cc1ccccc1 (stereo not given),7,3.9%,-1%,-25%
COCCNC(=O)c1c[nH]c2ccc(S(=O)(=O)N3CCc4ccccc43)cc2c1=O,-7,-0.1%,25%,11%
Cc1cc(C)c(C#N)c(SCC(=O)N(C)C2CCCCC2)n1,-4,1.3%,-21%,-1%
CCOC(=O)CN1C(=O)S/C(=C\c2ccc(-c3cccc(C(=O)O)c3C)o2)C1=O,nt,?,nt,?
COc1ccccc1/C=C1\S/C(=N/NC(=O)c2cccc(Br)c2)NC1=O,-12,?,-10%,?

The list is partial. The share of hits here may be higher or lower than overall.
